NPYLR7 ag – mosquito NPYLR7 agonism | AID 1259423 | HEK293T NPYLR7/Galpha15, GCaMP6s calcium fluorescence | actives 0.15% (n = 270,000) | activation, % at 10 µM; in the data active means activation above about 40%;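 further: 0% = vehicle and 100% = reference agonist at the receptor; some compounds past the cut are filed as inactive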
NPYLR7 ag max-min – recorded beside NPYLR7 ag, whose call it bears; activation, %; measured here: Max-Min RFU normalised activation; some inactives read as strong as hits;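 span of the calcium signal over five minutes; 0% = vehicle and 100% = native peptide agonist; compound fluorescence can raise it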
* hit, by the source's call; & = joins results of further samples. An excerpt; rates above refer to the full screens.

Each structure is followed by: NPYLR7 ag	NPYLR7 ag max-min
- Cc1cccnc1CC(C)NC(=O)c1c(-c2ccccc2)noc1C (stereo not drawn)
→ 5	4
- Cc1csc(SCc2cc(=O)c(OC(=O)c3ccc(Cl)c([N+](=O)[O-])c3)co2)n1
→ 5	-1
- Cc1cc2cc(CNC(=S)Nc3ccccc3)ccc2n1C
→ 6	8
- CC(Oc1ccc(C#N)cc1)C(=O)N/N=C\C=C\c1ccco1 (stereo not drawn)
→ -3	0
- COc1ccc2c(c1)-c1c(sn(-c3ccc(OC)c(OC)c3)c1=S)C(C)(C)N2
→ 11	5
- COC(=O)c1ccc(-c2noc(CN(C)Cc3cccc(-n4nc(C)cc4C)c3)n2)cc1
→ 17	10
- COc1ccc(NC(=O)N(C2CCCCC2)C2CC2)cc1C
→ -6	-5
- COc1ccc([C@@H]2CC(=O)c3c(O)cc(O[C@@H]4O[C@H](CO[C@@H]5O[C@@H](C)[C@H](O)[C@@H](O)[C@H]5O)[C@@H](O)[C@H](O)[C@H]4O)cc3O2)cc1O
→ 8	4
- CC(=O)N(CN1C(=O)c2ccccc2C1=O)c1ccc(C)cc1
→ -2	-5
- CCOC(=O)CC(=O)CSc1nc(N)c2c(C)c(C)sc2n1
→ 4	5
- CCc1nnc(CN(C)Cc2cccc(C(=O)Nc3cnn(C)c3)c2)o1
→ 7	4
- CCOc1ccccc1C1c2[nH]c3ccccc3c2CCN1C(=O)c1cc(C2CC2)on1 (stereo not drawn)
→ 12	5
- O=S(=O)(c1ccccc1)c1ccc(F)cc1
→ 0	0
- Cc1ncsc1CCN(C)C(=O)[C@@H]1C[C@H](NC(=O)N(C)C)CN1C
→ 4	1
- CC(C)[C@@H]1CC[C@@H](C)C[C@H]1O
→ 4	2
- CCOC(=O)c1cc(-c2cccc(NC(=O)c3cc(Cl)nc(OC)c3)c2)n(-c2cccc(C)c2)n1
→ 14	7
- CC(C)NC(=O)CCN=C1NS(=O)(=O)c2ccccc21
→ 0	-3
- O=C(Nc1cc2c3c(c1)CCN3C(=O)CC2)c1c(F)cccc1F
→ 6	-1
- O=c1[nH]c(C=Cc2ccc(Br)cc2)nc(O)c1[N+](=O)[O-]
→ 2	2
- O=C(CN1CCCC1=O)N1CCN(S(=O)(=O)c2ccc(F)cc2)CC1
→ 13	19
- O=C(c1cc(O)c(O)c([N+](=O)[O-])c1)c1ccccc1F
→ 0	29
- COCC(=O)N1CCC2(CC1)C(=O)N(CC(=O)NCc1cccc(C(F)(F)F)c1)CN2c1ccccc1
→ 3	8
- FC(F)(F)c1cccc(N2CCC(c3nc(C4CC4)n[nH]3)CC2)n1
→ 1	21
- Cc1cc(C)nc(NS(=O)(=O)c2ccc(NC(=O)c3ccc(C(C)(C)C)cc3)cc2)n1
→ 4	2
- C/C(=N\NC(=O)c1cc(C)[nH]n1)c1ccccc1O
→ 11	18
- Cc1nn(Cc2n[nH]c(=O)n2CCc2ccccc2F)c(C)c1C
→ 0	0
- O=C(C1CNCCO1)N1CCC(c2cc(Cc3ccccc3)[nH]n2)CC1 (stereo not drawn)
→ 14	9
- CC(=O)NCCC(=O)N1CC(C)CC(C)C1 (stereo not drawn)
→ 0	0
- CN(CCc1ccccc1)C1CCCN(Cc2ccsc2)C1 (stereo not drawn)
→ 15	2
- Cc1[nH]c2ccc(CNC(=O)CCCc3nc(-c4ccncc4)no3)cc2c1C
→ -5	-7
- CC1=C/C(=N\NC(=O)C(C)Nc2c(C)cccc2C)CC(C)(C)C1 (stereo not drawn)
→ 9	3
- Cc1ccc(Cn2c(=O)n(CCc3ccccn3)c3ncc(C(=O)O)cc32)cc1C
→ 3	8
- Cc1cccc(CC(=O)Nc2cc(C)nn2-c2ncnc3c2cnn3-c2ccc(F)cc2)c1
→ 5	6
- Nc1nc(-c2cc(Cl)ccc2Cl)cs1
→ -4	-8
- N#Cc1c(Cl)ncc2c1N(Cc1ccccc1)CC2
→ -10	-17
- CCN(Cc1nccn1Cc1ccc(F)c(F)c1)C(=O)NC(C)C
→ -2	-1
- CC(C)c1ccc(NC(=O)NCCNc2nc(-c3ccccc3)nc3cc(Cl)ccc23)cc1
→ 0	-1
- COc1cccc(CCNc2nncc(-c3ccccc3F)n2)c1OC
→ 7	8
- O=C(c1scc2c1OCCO2)N1CCOC(Cc2ccc(F)cc2)C1 (stereo not drawn)
→ 4	-7
- O=c1c2c(nc3c(-c4cccc5ccccc45)c[nH]n13)CCC2
→ -7	-7
- COc1ccc(N2C(=O)C(c3c(C)[nH]n(-c4cccc(Cl)c4)c3=O)=C(N3CCOCC3)C2=O)cc1OC
→ -9	0
- O=C(O)c1coc(CN(CCN2CCOCC2)Cc2cccc(Oc3ccccc3)c2)n1
→ 12	13
- c1ccc(-n2cncn2)c(CNC2CCC3(CCNCC3)CC2)c1
→ 21	13
- CCOCCn1nc(C)cc1C(=O)N1CCC(O)(CN(C)C)C1 (stereo not drawn)
→ 0	1
- Cc1cc(C)c[n+](CC(=O)c2ccccc2)c1
→ 27	6
- CN(C)CCNC(=O)[C@@]1(OCc2ccc(F)cc2)CC(OCc2c(F)cccc2F)[C@@H]2OC(C)(C)O[C@@H]2C1 (stereo partly drawn)
→ 15	5
- Cc1nccn1CC1CCc2c(c3ccccc3n2C)C1=O (stereo not drawn)
→ -12&-2&28	-17&-7&13
- O=C(CSc1nc2c([nH]c3ccccc32)c(=O)n1-c1ccccc1)Nc1nccs1
→ 4	2
- CC(C)N=c1cc2n(-c3ccc(Cl)cc3)c3ccccc3nc-2cc1Nc1ccc(Cl)cc1
→ -4&0	-8&-2
- COc1ccc(NC(=O)N2CCN(C(C(=O)NCc3cccc(F)c3)C3CCCC3)CC2)cc1 (stereo not drawn)
→ -13	-4

(continued)
Each structure is followed by: NPYLR7 ag	NPYLR7 ag max-min
- OCCOc1ccccc1-c1nccn1-c1ccc2c(c1)CCC2
→ 1	2
- COc1ccc(S(=O)(=O)N2CCCC(C)C2)cc1N1CCN(C(=O)CSc2ccccc2)CC1 (stereo not drawn)
→ 14	11
- CC(=O)N1N=C(N)SC1C (stereo not drawn)
→ -4	-8
- CCOC(=O)N1CCC(NCCn2nc(C)c(Cl)c2C)CC1
→ -6	-4
- COCC(C)n1cc(C(=O)c2cc(Cl)ccc2O)cc(C#N)c1=O (stereo not drawn)
→ 33	22
- CCC(C)N(Cc1ccsc1)Cc1ncc[nH]1 (stereo not drawn)
→ 0	-3
- CCc1nc2ccc(C(=O)Nc3cccc(OCC(=O)N(C)C)c3)cn2c1N(C)CCN1CCOCC1
→ 4	18
- CC(=O)N1CCc2cc(NS(=O)(=O)c3c(F)cc(F)cc3Br)ccc21
→ 1	4
- CSc1ccccc1NC(=O)c1cccc2cccnc12
→ 6	5
- O=C(Nc1ccc(Cl)cc1)N1CCN(C(=O)c2ccoc2)CC1
→ 0	-1
- CCc1nnc(NC(=O)CCCN2C(=O)NC3(CCCC3)C2=O)s1
→ -1	2
- CCc1[nH]ncc1C(=O)NCc1cccnc1N1CCN(c2ccccn2)CC1
→ 5	0
- COc1ccccc1C(=O)NCC(=O)N1CCC2CCCCC2C1 (stereo not drawn)
→ 6	4
- CC(=O)N1CCc2c(sc(NC(=O)c3nc4ccccc4s3)c2-c2nc3ccccc3s2)C1
→ 5	8
- COCCCn1c(C)cn2c3c(=O)n(CC(=O)OCc4ccccc4)c(=O)n(C)c3nc12
→ 2	0
- Cc1ccsc1C(=O)N1CC[C@@H](N2CCN(c3ccccc3F)CC2)[C@H](O)C1
→ 7	0
- CCOc1cc(S(=O)(=O)NCCCN2CCOCC2)c(C)cc1C
→ 0	-1
- Cc1ccc2c(=O)c(/C=N\NC(=O)CCC(=O)Nc3cccc(C(=O)O)c3)coc2c1
→ 1	-5
- COc1ccccc1C1(CC(=O)N2CCC(Oc3cccc(F)c3)CC2)CC(=O)N(C)C1=O (stereo not drawn)
→ 7	6
- O=c1[nH]nc(SC2c3ccccc3-c3ccccc32)n1C1CC1
→ 4&5	2&5
- O=C(Nc1cccc(Cl)c1Cl)N[C@@H](Cc1ccccc1)C(=O)N1CCC(C(=O)N2CCOCC2)CC1
→ 2	18
- O=C1CCCc2nc(-c3ccc(Cl)cc3)sc21
→ 13	9
- CCCCC(CC)C(=O)Nc1ccc(N2CCc3ccccc3C2)c(C(=O)NC2CCCCC2)c1 (stereo not drawn)
→ 13	18
- Cc1ccc(C)c(NC(=O)C(C)N(C)CC(=O)Nc2ccc(Cl)c(Cl)c2)c1 (stereo not drawn)
→ 6	4
- O=C(O)[C@H]1C[C@]2(CCCCN(CCO)C2=O)N(C(=O)NC2CCCC2)[C@H]1c1ccccc1
→ 2	8
- COc1ccc(CCOC(=O)[C@@H]2CCCN2C(=O)C(C)(C)c2ccc(Cl)cc2)cc1OC
→ -7	-14
- Cc1ccc(C2=NN(C(=O)CN3CCN(C)CC3)C(c3ccc4c(c3)OCO4)C2)c(C)c1 (stereo not drawn)
→ -4	5
- Cc1ccccc1N1CCN(C2CCCN(C(=O)CCn3cnc4ccccc43)C2)CC1 (stereo not drawn)
→ -2	-10
- COC(=O)c1ccc(COC(CN2CCN(S(=O)(=O)c3cccc(C(F)(F)F)c3)CC2)c2cccc(OC)c2)cc1 (stereo not drawn)
→ 27	12
- COc1ccc(C(=O)Oc2coc(CSc3nc(C)cc(C)n3)cc2=O)c(OC)c1
→ -12	-5
- CN(Cc1ccc(Cl)s1)Cc1cc2c(cc1O)OCO2
→ 1	30
- Cc1ccsc1C(=O)N1CCC1(C)C(=O)NS(=O)(=O)c1cccc(OC(F)F)c1 (stereo not drawn)
→ 0	-2
- COc1ccc2cc(C(=O)N(C)Cc3ccc(F)cc3)[nH]c2c1
→ 0	-1
- COc1ccc([N+](=O)[O-])cc1N/C=C(\C#N)C(=O)NC(=O)Cc1ccccc1
→ 1	3
- COC(=O)c1ccc(C)c(NC(=O)c2nn(C)c(C)c2Br)c1
→ 8	3
- O=C(COc1ccccc1)N1C[C@@H]2[C@@H]3CC[C@@H](C3)[C@@H]2C1
→ 6	3
- COc1ccccc1C1=NN(C(=O)CN2CCCCC2C)C(c2ccccc2Cl)C1 (stereo not drawn)
→ 19	18
- O=C(NS(=O)(=O)Cc1ccccc1)c1sccc1C1CC1
→ 6	2
- CC(C)(C)n1nc2c(c1NC(=O)C13CC4CC(CC(C4)C1)C3)CSC2
→ 3	-1
- Cc1cc(C)c(S(=O)(=O)N2CCN(c3ccc([N+](=O)[O-])cn3)CC2)c(C)c1
→ 17	9
- CN(C)CCCN1C(=O)C(=O)C(=C(O)c2ccccc2)C1c1ccccc1F (stereo not drawn)
→ 10	6
- COCCOC(=O)C1C(=N)OC2=C(C(=O)CC(C)(C)C2)C1c1cccnc1 (stereo not drawn)
→ 16	12
- Cc1occc1C(=O)Nc1nnc(C2CCCCC2)s1
→ 10	7
- CCc1nc2ccc(C(=O)Nc3cccc(NS(C)(=O)=O)c3)cn2c1N(CC)CCOC
→ -10	-12
- CSc1nnc2c(n1)OC(/C=C/c1ccccc1)Nc1ccccc1-2 (stereo not drawn)
→ 0	-1
- O=C(NCCC(=O)N1C[C@H](O)[C@@H](N2CCCC2)C1)c1ccc(F)cc1
→ 4	0
- COc1ccc(-c2onc(C)c2C(=O)NCCc2cccc(Cl)c2)cc1
→ -1	3
- CCOc1ccc(NC(=O)c2cc(-c3ccc(Cl)s3)nc3ccccc23)cc1
→ 12	8
- Cc1onc(-c2ccccc2Cl)c1C(=O)Nc1cccc(Cl)c1NC(=O)c1ccccc1
→ -11	-15
- O=c1c([N+](=O)[O-])c(N2CCN(Cc3ccc(F)cc3)CC2)c2ccccc2n1-c1ccccc1
→ 15	9

Following part:
Each structure is followed by: NPYLR7 ag	NPYLR7 ag max-min
- O=C1c2nc(Nc3ccncc3)ccc2CN1C1(C(=O)NCc2ccccc2)CC1
→ 5	1
- CCNC(=O)Cc1cc(-c2ccc(OC)cc2)on1
→ 8	7
- Cc1cc(C(=O)Nc2cc(Br)ccc2-n2cccn2)on1
→ 4	1
- Cc1ccc(NC(=O)CCSCc2nc3sc4c(c3c(=O)[nH]2)CCC4)cc1
→ -1	-3
- CC(C)Cc1nc(N2CCN(C(=O)c3ccc4c(c3)OCO4)CC2)c2c(-c3cccc(Oc4ccccc4)c3)noc2n1
→ 16	2
- NC(=O)c1cc[n+](CC2=C(C(=O)O)N3C(=O)C(NC(=O)Cc4cccs4)C3SC2)cc1 (stereo not drawn)
→ -5&17	-12&2
- CC(=O)c1ccc(N2CCN(Cn3nc(C)n(-c4cccc(C)c4)c3=S)CC2)cc1
→ -5	-6

An excerpt of these results, bar-delimited:
SMILES | NPYLR7 ag | NPYLR7 ag max-min
COCCOC(=O)C1C(=N)OC2=C(C(=O)CC(C)(C)C2)C1c1cccnc1 (stereo not drawn) | 16 | 12
Cc1occc1C(=O)Nc1nnc(C2CCCCC2)s1 | 10 | 7
CCc1nc2ccc(C(=O)Nc3cccc(NS(C)(=O)=O)c3)cn2c1N(CC)CCOC | -10 | -12
CSc1nnc2c(n1)OC(/C=C/c1ccccc1)Nc1ccccc1-2 (stereo not drawn) | 0 | -1
O=C(NCCC(=O)N1C[C@H](O)[C@@H](N2CCCC2)C1)c1ccc(F)cc1 | 4 | 0
COc1ccc(-c2onc(C)c2C(=O)NCCc2cccc(Cl)c2)cc1 | -1 | 3
CCOc1ccc(NC(=O)c2cc(-c3ccc(Cl)s3)nc3ccccc23)cc1 | 12 | 8
Cc1onc(-c2ccccc2Cl)c1C(=O)Nc1cccc(Cl)c1NC(=O)c1ccccc1 | -11 | -15
O=c1c([N+](=O)[O-])c(N2CCN(Cc3ccc(F)cc3)CC2)c2ccccc2n1-c1ccccc1 | 15 | 9
O=C1c2nc(Nc3ccncc3)ccc2CN1C1(C(=O)NCc2ccccc2)CC1 | 5 | 1
CCNC(=O)Cc1cc(-c2ccc(OC)cc2)on1 | 8 | 7
Cc1cc(C(=O)Nc2cc(Br)ccc2-n2cccn2)on1 | 4 | 1
Cc1ccc(NC(=O)CCSCc2nc3sc4c(c3c(=O)[nH]2)CCC4)cc1 | -1 | -3
CC(C)Cc1nc(N2CCN(C(=O)c3ccc4c(c3)OCO4)CC2)c2c(-c3cccc(Oc4ccccc4)c3)noc2n1 | 16 | 2
NC(=O)c1cc[n+](CC2=C(C(=O)O)N3C(=O)C(NC(=O)Cc4cccs4)C3SC2)cc1 (stereo not drawn) | -5&17 | -12&2

Source: PubChem (Fisher Drug Discovery Resource Center)
